Source: PubChem (National Center for Advancing Translational Sciences (NCATS))
hNpr1 antagonist = human Npr1 receptor antagonism; P16066; HEK293 hNpr1 GloSensor cGMP, ANP-stimulated luminescence; Potency, µM (series often up to 46.3 µM), for inactives: at the top dose activity change, negative = inhibition, hits mostly inhibitors; 76,000 tested, 1.6% active; active = well fitted inhibition curve with a large enough effect; inconclusive = small, poorly fitted or top-dose-only effect; inactive = no such curve, though single readings can be large or run the other way;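 further: nearly all actives have a fitted effect of over 60% in size; nearly all hits also lower the signal before the agonist is added; a reference antagonist and vehicle were the controls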
Target sequence (P16066 whole entry, looked up): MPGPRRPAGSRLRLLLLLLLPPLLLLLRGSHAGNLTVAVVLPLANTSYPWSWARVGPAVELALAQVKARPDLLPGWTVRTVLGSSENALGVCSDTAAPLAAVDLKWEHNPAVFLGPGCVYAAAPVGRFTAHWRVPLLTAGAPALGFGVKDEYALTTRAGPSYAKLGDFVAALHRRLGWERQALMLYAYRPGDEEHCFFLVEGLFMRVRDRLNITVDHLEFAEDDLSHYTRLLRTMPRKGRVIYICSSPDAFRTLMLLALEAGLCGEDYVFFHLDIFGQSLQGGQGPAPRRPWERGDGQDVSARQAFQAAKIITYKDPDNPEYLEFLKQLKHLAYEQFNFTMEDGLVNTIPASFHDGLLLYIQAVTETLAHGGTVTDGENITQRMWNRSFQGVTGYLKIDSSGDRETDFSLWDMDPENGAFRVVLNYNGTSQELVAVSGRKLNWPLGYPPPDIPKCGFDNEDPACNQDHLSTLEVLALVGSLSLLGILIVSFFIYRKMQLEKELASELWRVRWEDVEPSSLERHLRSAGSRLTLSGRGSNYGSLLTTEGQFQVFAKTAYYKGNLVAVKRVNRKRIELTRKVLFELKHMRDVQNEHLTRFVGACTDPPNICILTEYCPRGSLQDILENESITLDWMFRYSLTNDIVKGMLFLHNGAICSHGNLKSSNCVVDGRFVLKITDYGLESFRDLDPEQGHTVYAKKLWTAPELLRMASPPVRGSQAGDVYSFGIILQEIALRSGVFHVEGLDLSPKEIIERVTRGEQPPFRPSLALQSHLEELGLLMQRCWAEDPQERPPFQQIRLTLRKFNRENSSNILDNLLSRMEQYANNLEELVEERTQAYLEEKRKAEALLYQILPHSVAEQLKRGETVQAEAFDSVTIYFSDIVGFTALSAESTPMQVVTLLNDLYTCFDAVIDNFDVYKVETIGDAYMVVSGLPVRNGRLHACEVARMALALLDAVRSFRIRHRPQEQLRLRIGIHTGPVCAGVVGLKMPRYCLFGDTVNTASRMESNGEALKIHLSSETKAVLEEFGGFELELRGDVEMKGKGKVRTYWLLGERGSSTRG
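HEK293 cells stably expressing human Npr1 and cGMP GloSensor pGS-40F, loaded 2 h with 2% GloSensor reagent, given compound 30 min at room temperature. Luminescence read before and 20 min after 0.1 nM hNppA.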
* = called active by the depositor; ? = inconclusive; [ ] = another dose, or the depositor's remark. On the % scale 0 is the no-effect control and ±100 the full control effect; potency means the concentration at half of the fitted maximal effect. These rows are one share of the data; count on the stated rates, not on these rows.

compound	hNpr1 antagonist
CN1CCN(C(=O)c2cccnc2)CC12CCC(=O)N(CC1CC1)CC2 (centres undefined)	6%
CCOc1ccc(-c2cc3c(=O)n(CCNC(=O)c4ccc5c(c4)OCO5)ccn3n2)cc1	5%
O=C(N[C@H]1CCN2C(=O)c3ccc(Cl)cc3NC(=O)[C@H]12)c1cccc(F)c1	-8%[70.6 µM]
NC1CC(c2cc(NCc3noc(C(F)(F)F)n3)ncn2)C1 (centres undefined)	2%
Cc1noc(-c2cn(C3CCN(C(=O)COc4ccc(F)cc4)CC3)nn2)n1	-2%
O=C([C@@H]1C[C@H](Oc2cccnc2)CN1C(=O)c1ccc2ccccc2n1)N1CCOCC1	3%
Clc1ccccc1Nc1cnc2ccc(N3CCOCC3)nn12	?
COc1cccc(Nc2cc(-c3cccs3)nc3c(C)noc23)c1	-10%[70.6 µM]
O=C(NC[C@H]1O[C@H](Cc2cc(CN3CCN(c4ccccc4)CC3)on2)CC[C@@H]1O)c1ccccc1	-1%
O=C(CN1CC2CC(C1)[C@H]1CCCC(=O)N1C2)N1CCN(c2ccccc2)CC1 (some centres undefined)	-4%

Additional records follow.
compound	hNpr1 antagonist
COc1ccc(C2Cn3nnc(-c4noc(C5CCC5)n4)c3CO2)cc1 (centres undefined)	-22%
CN(C)CCNC(=O)c1cnc2c(c1)N(Cc1ccccc1)CCC2	0%[70.6 µM]
COc1cccc(CN2CC[C@H]3C(=O)NCCCCCCN(Cc4ccncc4)[C@@H]3C2)n1	-12%
O=C(c1ccc(F)cc1)N1CCC[C@H]1c1nc(-c2ccccc2)no1	-12%
COc1ccc(C(=O)NCC2(COc3cccnc3)C[C@@H](O)[C@@H](O)C2)cc1 (some centres undefined)	5%[70.6 µM]
COc1cccc(S(=O)(=O)N2CCC(c3noc(-c4cccnc4)n3)C2)c1 (centres undefined)	-1%
COc1cccc(OC)c1-c1c(-c2ccccc2)ncn1CCCSC	-23%
O=C(Cn1nc2n(c1=O)CCCC2)Nc1cccc(Cl)c1	-8%
CCn1cc(S(=O)(=O)N2CCC(c3noc(-c4ccncc4)n3)C2)cn1 (centres undefined)	-8%
COc1ccc(CC(=O)N2CCCN(c3cc(-c4ccc(OC)cc4)[nH]n3)CC2)cc1	?

Additional compounds follow:
compound	hNpr1 antagonist
Cc1noc(-c2cccc(F)c2)c1C(=O)NCc1ccc(Cl)cc1	-3%
O=[N+]([O-])c1cccc(-c2noc([C@@H]3C[C@@H](O)CN3Cc3ncc[nH]3)n2)c1	3%[70.6 µM]
Cc1ccc(N2CC(c3noc(COc4cccc(C)c4)n3)CC2=O)cc1 (centres undefined)	-6%
c1ccc(CN2CCNc3cc(-c4ccncc4)ncc3C2)cc1	2%[70.6 µM]
COc1ccc(CN2C(=O)[C@@H]3C[C@@H](O)CN3C3(CN(CC(C)C)C3)C2=O)cc1	-1%[70.6 µM]
Cc1ncoc1C(=O)N1CCC(c2noc(-c3ccccc3)n2)C1 (centres undefined)	-23%
CS(=O)(=O)c1ccc(OCC2(CNS(=O)(=O)c3ccc(F)cc3)C[C@@H](O)[C@@H](O)C2)cc1 (some centres undefined)	-4%
COCCn1nnnc1C1CC2(CCOCC2)C(=O)N1Cc1ccc(Cl)cc1 (centres undefined)	3%
CCc1ccc(C(=O)NC2CCN(c3cn[nH]c(=O)c3)CC2)cc1	-7%
CC(C)(CC(=O)O)CC(=O)N1CC[C@H]2NC(=O)N(c3ccc(F)cc3)C(=O)[C@H]21	5%[70.6 µM]

More structures.
compound	hNpr1 antagonist
COc1cccc(C(=O)N2CCC(N3C[C@H](O)C[C@H]3C(=O)NCc3ccccc3)CC2)c1	-1%
Cc1c(Cl)cccc1NC(=O)Cn1ccn2nc(-c3ccccc3)c(CO)c2c1=O	0%
COc1ccc(CN2CCC3(CCC(=O)N(Cc4ccncc4)C3)CC2)c(F)c1	10%
O=C(NCCN1CCOCC1)c1ccc2c(c1)n(Cc1cccc(F)c1)c(=O)c1ccnn12	4%
COc1ccc(S(=O)(=O)NCC2Cn3cccc3C(=O)N2Cc2ccccc2)cc1 (centres undefined)	-16%
CN1CCCN(C(=O)Cc2ccc(OC(F)(F)F)cc2)c2ccccc21	-1%
CN(C)C[C@@H]1CN(C)C[C@H]1NC(=O)c1cc2ccccc2[nH]1	-14%
O=C(C[C@@H]1CCNC[C@@H]1Cc1cc(COc2ccccc2)on1)NCc1ccccc1	-26%[70.6 µM]
COc1ccc(CC(=O)N2CC[C@@H](CC(=O)O)[C@@H](CCN3CCN(c4ccc(F)cc4)CC3)C2)cc1	-1%
COc1ccc(-c2noc([C@@H](C)NC(=O)Cc3ccccc3)c2C(=O)O)cc1	2%[70.6 µM]

Further structures follow:
compound	hNpr1 antagonist
CC(C)CNC(=O)N1CC(Oc2ccc(-c3nc(-c4ccccc4)no3)cc2)C1	0.5µM*
O=C(CSCCN1CCCC1)N1CCC(n2cnnc2)CC1	-3%
CC(C)CC(=O)N1C[C@@H](Oc2ccccc2)C[C@H]1C(=O)N1CCCC1	4%
CCc1nnc(NC(=O)C2CC(=O)N(c3n[nH]c4cccc(F)c34)C2)s1 (centres undefined)	1%
O=C(NCCc1noc(-c2ccccc2)n1)c1n[nH]c2ccccc12	-11%
Cc1cc(C)cc(C(=O)N2CCCC(n3cc(-c4nc(C)no4)nn3)C2)c1 (centres undefined)	-21%
Cc1ccc(C(C(=O)NCc2cc(C)nn2C)N(C)C)cc1 (centres undefined)	1%
COc1ccc(C(=O)NCCn2ccn3nc(-c4ccc(C)c(C)c4)cc3c2=O)cc1	-20%
N#Cc1ccc(C(=O)N2CCC3(CC2)NC(=O)N(Cc2ccccc2)C3=O)cc1	3%
COCCOC1CCOC2(CCN(S(=O)(=O)c3c(C)noc3C)CC2)C1 (centres undefined)	7%

The listing continues:
compound	hNpr1 antagonist
COc1ccc(C(=O)N[C@@H]2CCC[C@@H]2C(=O)NCC(C)C)cn1	-1%
CN(CC(O)COc1cccc(CNCCOc2ccccc2)c1)C1CCCCC1 (centres undefined)	7%
CC(=O)N1CC2(CCN(c3nc(C)cc(C(=O)O)n3)CC2)CC1C(=O)O (centres undefined)	19%
CN1CCCCCCN(C(=O)NCc2ccccc2)CCC1=O	3%
Cn1c(CN2CCCCC2)nnc1C1CCCN(C(=O)c2cccnc2)C1 (centres undefined)	-2%
COc1ccc(-c2noc([C@@H](C)NC(=O)c3cc(C)oc3C)c2C(=O)O)cc1	-1%[70.6 µM]
CN(C)c1ccc(C(=O)N[C@H]2C[C@H]3C(=O)NC[C@@H](CCC(=O)NCc4cccnc4)N3C2)cc1	2%
CCC1=C(C(=O)OC)C(c2ccccc2OC)N2C(CC(=O)NCC3CCCO3)=CSC2=N1 (centres undefined)	-22%
Cn1cccc1C(=O)N[C@H]1CCN2C(=O)N(c3cccc(F)c3)C(=O)[C@@H]2C1	-1%[70.6 µM]
CCOCc1nc(C2CCCN(C(=O)COc3ccccc3)C2)no1 (centres undefined)	-2%

Four entries from above, field by field:
> Cn1c(CN2CCCCC2)nnc1C1CCCN(C(=O)c2cccnc2)C1 (centres undefined)
  hNpr1 antagonist = -2%

> COc1ccc(-c2noc([C@@H](C)NC(=O)c3cc(C)oc3C)c2C(=O)O)cc1
  hNpr1 antagonist = -1%[70.6 µM]

> CN(C)c1ccc(C(=O)N[C@H]2C[C@H]3C(=O)NC[C@@H](CCC(=O)NCc4cccnc4)N3C2)cc1
  hNpr1 antagonist = 2%

> CCC1=C(C(=O)OC)C(c2ccccc2OC)N2C(CC(=O)NCC3CCCO3)=CSC2=N1 (centres undefined)
  hNpr1 antagonist = -22%

Later entries.
compound	hNpr1 antagonist
CCCn1ncnc1C(C)NC(=O)C1CCN(C(=O)C2CC2)CC1 (centres undefined)	0%
CC(C)(Oc1nn(CCN2CCOCC2)c2ccccc12)C(=O)NCCCn1ccnc1	3%[70.6 µM]
CN(C)CC1(O)CCC2(CCN(C(=O)c3ccsc3)CC2)CC1	3%
CCC1Oc2ccc(NC(=O)c3c(F)cccc3F)cc2CN(CCc2ccc(F)cc2)C1=O (centres undefined)	-22%
Cc1cc(C2CCCN2C(=O)c2cc(F)ccc2F)on1 (centres undefined)	4%
Cc1nn2c(c1-c1ccccc1-c1ccccc1)N(C(=O)CN1CCOCC1)CCC2	-11%[70.6 µM]
CC(C)CC(=O)NC1CCN(c2cnn(Cc3ccccc3)c(=O)c2)CC1	6%
CC(=O)N1CCc2nn(CC(=O)Nc3ccc(C(F)(F)F)cc3)c(=O)cc2C1	-6%
O=C(Cc1ccccc1F)N1CCCN(c2cc(-c3ccc(Cl)cc3)[nH]n2)CC1	0%
OCC(Cc1ccco1)Cn1ccnc1-c1ccccn1 (centres undefined)	?

Overlap with the part before: four entries, then new ones.
compound	hNpr1 antagonist
CC(C)CC(=O)NC1CCN(c2cnn(Cc3ccccc3)c(=O)c2)CC1	6%
CC(=O)N1CCc2nn(CC(=O)Nc3ccc(C(F)(F)F)cc3)c(=O)cc2C1	-6%
O=C(Cc1ccccc1F)N1CCCN(c2cc(-c3ccc(Cl)cc3)[nH]n2)CC1	0%
OCC(Cc1ccco1)Cn1ccnc1-c1ccccn1 (centres undefined)	?
COCCCNC(=O)c1c(OCC2CC2)cc(=O)n2c1CCCCC2	0%
O=C(CCC1CCN(C(=O)c2ccccc2Cl)CC1)NC1CCS(=O)(=O)C1 (centres undefined)	4%
Cc1ccc(C(C)NC(=O)CN2C(=O)NC3(CCCCC3)C2=O)cc1 (centres undefined)	0%
COc1ccc(NC(=O)N2CCC(O)(c3csc(CN4CCc5ccccc5C4)n3)CC2)cc1	?
Cc1nnsc1CN(C)C(=O)Cn1nc(C)n(Cc2ccccc2)c1=O	2%
O=C(Cn1cccc1-c1nc(-c2ccc3c(c2)OCO3)no1)Nc1ccc(Cl)cc1F	-5%
Cn1nccc1CN1CCc2nc(C3CC3)nc(-c3ccc(O)cc3)c2C1	-2%
CC1(C)[C@H](Cc2cc(CN3CCN(c4ccccc4)CC3)on2)C[C@@H]1NC(=O)NCc1ccccc1	11µM*
Brc1ccc(-c2ccnc3ncnn23)s1	2%
COc1ccc(C(=O)N[C@@H]2CCC[C@@H]2C(=O)N2CCCC2)cc1	1%

Retrieved one by one from the entries so far, 3 records:
compound	hNpr1 antagonist
CC1(C)[C@H](Cc2cc(CN3CCN(c4ccccc4)CC3)on2)C[C@@H]1NC(=O)NCc1ccccc1	11µM*
Cc1nnsc1CN(C)C(=O)Cn1nc(C)n(Cc2ccccc2)c1=O	2%
COc1ccc(NC(=O)N2CCC(O)(c3csc(CN4CCc5ccccc5C4)n3)CC2)cc1	?

The results go on:
compound	hNpr1 antagonist
CN1C(=O)CCCCC1C(=O)N1CCc2ccccc2C1 (centres undefined)	0%
Cc1ccc(CNC(=O)N2CCC(CC(=O)NC3CC3)C2)cc1 (centres undefined)	0%
COCC(=O)N[C@H]1[C@H](O)[C@H](O)C[C@@H]1c1ccccc1C	3%[70.6 µM]
CC(C)c1noc(CN(C)C(=O)c2cc(-c3cnn(C)c3)nc3ccccc23)n1	8%
CN(C)C[C@@H]1CN(C)C[C@H]1NC(=O)c1ccc(Br)cc1	0%
C[C@]1(O)CCN(C(=O)c2cnn3cc(CCO)cnc23)C[C@@H]1O	6%
OC1(Cn2ccnc2)CCN(c2nccc(-c3cccnc3)n2)CC1	-4%
COc1ccc(-c2cc(N3CCCN(C(=O)c4nn(C)c5ccccc45)CC3)n[nH]2)cc1	-12%
CC(C)(C)CC(=O)Nc1nc2c(s1)C[C@@H]1[C@](C)(CO)[C@H](O)CC[C@@]1(C)[C@@H]2CC(=O)O	9%[70.6 µM]
CCc1nc2c(c(-c3ccc(Cl)cc3)n1)CN(Cc1ccc(F)cc1)CC2	1%
c1ccc(CN2CCNc3cc(NCc4cccnc4)ncc3C2)cc1	2%[70.6 µM]
Cc1cccnc1CN(C)c1ccc(C(=O)NCc2noc(C(C)C)n2)cn1	1%

Some of the entries so far, as labelled records.
C[C@]1(O)CCN(C(=O)c2cnn3cc(CCO)cnc23)C[C@@H]1O
  hNpr1 antagonist = 6%
OC1(Cn2ccnc2)CCN(c2nccc(-c3cccnc3)n2)CC1
  hNpr1 antagonist = -4%
COc1ccc(-c2cc(N3CCCN(C(=O)c4nn(C)c5ccccc45)CC3)n[nH]2)cc1
  hNpr1 antagonist = -12%
CC(C)(C)CC(=O)Nc1nc2c(s1)C[C@@H]1[C@](C)(CO)[C@H](O)CC[C@@]1(C)[C@@H]2CC(=O)O
  hNpr1 antagonist = 9%[70.6 µM]
